Bioassay records (PubChem BioAssay)
VDR inhibitor: Inhibitors of the vitamin D receptor (VDR): qHTS; Vitamin D3 receptor (Homo sapiens), P11473; VDR-SRC2-3 peptide fluorescence polarization, 2 h; Potency, µM, for the others: max response, negative = inhibition, actives largely listed as inhibitors; 400,000 tested, 0.93% active; AID 504847, 2011; active means well fitted inhibition curve with a large enough effect; inconclusive means small, poorly fitted or top-dose-only effect, or another doubt; inactive means no such curve, though single readings can be large or run the other way; further: series mostly up to about 120 µM
Target sequence (P11473 whole entry, looked up): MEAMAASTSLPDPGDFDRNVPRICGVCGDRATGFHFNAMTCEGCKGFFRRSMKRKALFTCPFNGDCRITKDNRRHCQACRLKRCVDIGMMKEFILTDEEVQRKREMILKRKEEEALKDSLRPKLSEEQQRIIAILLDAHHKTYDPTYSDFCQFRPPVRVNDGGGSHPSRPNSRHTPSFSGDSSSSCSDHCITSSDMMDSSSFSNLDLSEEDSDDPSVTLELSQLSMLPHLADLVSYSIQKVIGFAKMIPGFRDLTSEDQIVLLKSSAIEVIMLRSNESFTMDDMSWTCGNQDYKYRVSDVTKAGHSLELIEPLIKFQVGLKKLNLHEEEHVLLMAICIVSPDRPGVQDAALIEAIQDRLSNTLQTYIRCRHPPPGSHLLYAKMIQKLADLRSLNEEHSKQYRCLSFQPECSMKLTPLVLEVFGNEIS
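FP read-out; VDR + SRC2-3 coactivator peptide; 23 nl compound by pintool; 2 h RT incubation; reagents held at 4 deg C, protected from light.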
Active calls of the source: *; ? = inconclusive; & = joins results of further samples. On the % scale 0 is the no-effect control and ±100 the full control effect; potency means the concentration at half of the fitted maximal effect.

SMILES | VDR inhibitor
CC(OC(=O)c1cc(S(=O)(=O)N2CCOCC2)ccc1Br)C(=O)N1CCOCC1 (stereo not drawn) | -0.8%
COc1ccc(OC)c(C(=O)COC(=O)c2cc(C)oc2C)c1 | 11.8%
CC1(C)CN(c2ccc(Br)cc2Br)C1=O | 1.3%
CC(C)(C)NCC(=O)c1c[nH]c2ccccc12 | 4.1%
Cc1cc(C)n(-c2ncnc3c2oc2ccccc23)n1 | 9.6%
CCOc1ccc(OCCCC(=O)ON=C(N)c2ccccc2C)cc1 | -3.4%
O=C(/C=C/c1ccc(S(=O)(=O)N2CCOCC2)cc1)NC(=S)Nc1ccc(Cl)cc1Cl | 6.4%
CCc1ccc(S(=O)(=O)c2nnn3c2nc(Nc2ccc(NC(C)=O)cc2)c2sccc23)cc1 | 4.7%
N#Cc1cccc(S(=O)(=O)Nc2c(NC3CCCCC3)c3ccccc3oc2=O)c1 | -14.1%
Cc1ccc(S(=O)(=O)N2CCN(C(=O)CCC(=O)Nc3ccc(Br)c(C)c3)CC2)cc1 | -19.9%
O=C(Nc1ccc(N2CCN(c3ccc(F)cc3)CC2)c(C(=O)O)c1)c1ccccc1F | 9.3%
Cc1ccc(-c2nc3ccc(Cl)cn3c2Nc2ccccc2)o1 | -20.7%
Cc1ccc2c(COC(=O)c3n[nH]c4ccccc34)cc(=O)oc2c1 | -4.8%
COc1cc(C(C)=O)ccc1OCC(=O)NC(=O)Nc1ccc(C)cc1C | 8.5%
COc1ccccc1N1C(=O)S/C(=C\c2cccs2)C1=O | -12.7%
Cc1cc2c(SCc3ccccc3Cl)nc(N)nc2nc1C | 26.8%
Nc1cc(=O)[nH]c(SCC(=O)Nc2ccc(S(=O)(=O)N3CCOCC3)cc2)n1 | 8.6%
Cc1ccc(S(=O)(=O)N2CCCOC2CNC(=O)C(=O)NCc2ccc3c(c2)OCO3)cc1 (stereo not drawn) | 1.3%
Cc1cc(/C=N/NC(=O)c2cccnc2)c(C)n1CC(C)C | -12.0%
Cc1nnc(SCC(=O)NCC2COc3ccccc3O2)s1 (stereo not drawn) | -4.7%
Cc1nc(C(Cl)(Cl)Cl)nc2[nH]ccc(=O)c12 | 17.8µM*
COc1ccc(NC(=O)C(CC(=O)O)Cc2ccc(C)cc2)cc1 (stereo not drawn) | -11.9%
COc1ccc(/C=N/NC(=O)c2ccc(N(C)S(=O)(=O)c3ccccc3)cc2)cc1 | 4.9%
COc1ccc(NC(=S)N2CCC(N(C)CCN3CCOCC3)CC2)cc1Cl | -22.8%
COc1ccc(CC(=O)NCCS(=O)(=O)N2CCN(c3ccccc3)CC2)cc1 | -13.6%
O=C(Cn1cc(C(F)(F)F)ccc1=O)Nc1cccc(S(=O)(=O)N2CCOCC2)c1 | 4.0%
CCN(CC)CCCN(Cc1cc2cc(OC)ccc2[nH]c1=O)C(=O)Nc1ccccc1 | 3.9%
COc1ccc(CNC(=O)CC(c2ccc(OC)c(OC)c2)N2Cc3ccccc3C2=O)cc1 (stereo not drawn) | -10.4%
COC(Cc1nnc(SC)n1-c1ccccc1)OC | -5.4%
O=C(CSc1ncc(-c2ccc(F)cc2)[nH]1)N1CCCCC1 | -3.3%
Cc1ccc(CC(=O)Nc2ccc(S(=O)(=O)Nc3nccc(C)n3)cc2)cc1 | 11.0%
C=CCn1c(=O)c(C(=O)NC2CC2)c(O)c2cc(OC)c(OC)cc21 | 25.8%
O=C1C=C(NCc2ccc(Cl)c(Cl)c2)C2(CCCCC2)O1 | 6.5%
CCOC(=O)C1CCN(CC(O)COCc2ccc(Cl)cc2)CC1 (stereo not drawn) | 10.0%
CC(C)Cn1c(-c2cccs2)nc2nc3ccccc3nc21 | 1.4%
Cc1cc(C)cc(NC(=O)CSc2nc3c(c(=O)[nH]2)CN(Cc2ccc(F)cc2)CC3)c1 | -6.0%&-14.4%
CCOC(=O)c1cnc2ccc(OCC)cc2c1Nc1cc(Cl)c(OC)cc1OC | -17.6%
Nc1nc(SCc2ccc(Cl)cc2Cl)nc2nc3c(cc12)CCCC3 | -3.3%
Cc1ccccc1C(=O)N1CCN(c2ccc(NC(=O)Cc3ccccc3)cc2)CC1 | -12.7%
COc1ccc(OC)c(CN2C(=O)c3ccccc3C2C(=O)NCC2CCCO2)c1 (stereo not drawn) | 2.1%

VDR inhibitor: hit marks shown above
SMILES | VDR inhibitor
Cc1nc(C(Cl)(Cl)Cl)nc2[nH]ccc(=O)c12 | 17.8µM*

Remaining list, next part:
SMILES | VDR inhibitor
C=CC[C@@H](CC(=O)N[C@H](CO)Cc1ccccc1)C(=O)N[C@@H](C)COC(=O)[C@@H](CC=C)CC(=O)OC(C)(C)C | -4.2%
Cc1cc(C)c(C)c(OCCCn2ccnc2)c1 | -0.4%
CCC(C)c1ccccc1N1CC(C(=O)N2CCN(C(=O)c3ccco3)CC2)CC1=O (stereo not drawn) | 25.6%
CCOC(=O)c1cnc(-n2[nH]c(C)cc2=O)[nH]c1=O | 5.1%
CCN(CC)C(=O)CSc1nc(N)c(C(=O)Nc2ccc(OC)cc2)s1 | 0.7%
Cc1c(C(=O)NCC2CCCO2)oc2ccc(S(=O)(=O)N3CCCC3)cc12 (stereo not drawn) | 6.9%
O=C(Nc1ccc(F)cc1)c1nc(SCc2ccccc2F)ncc1Cl | 8.0%
Nc1cc(Oc2ccc(F)cc2F)cc([N+](=O)[O-])c1 | -8.1%
CC(C)C(C)NC(=O)Cn1cnc2c(oc3ccccc32)c1=O (stereo not drawn) | -11.8%
Cc1ccsc1C(=O)OCC(=O)NCc1ccc2c(c1)OCO2 | -10.3%
O=C1[C@H](Cc2ccccc2)NCC=CC[C@H](c2ccco2)N1Cc1ccccc1 | -2.2%
CCc1nnc(NC(=O)CSc2nnc(C3CC3)n2C)s1 | 0.9%
O=C1CCC(C(=O)N2CCCC2)CN1Cc1cccc(C(F)(F)F)c1 (stereo not drawn) | -15.2%
CCOC(=O)COn1c(=O)c[n+]([O-])c2ccccc21 | -2.5%
NS(=O)(=O)c1ccc(O)c(NC(=O)c2ccc([N+](=O)[O-])o2)c1 | ?
O=C(NCc1ccccc1Cl)c1ccc(S(=O)(=O)Nc2cccc(C(F)(F)F)c2)cc1 | -5.5%
COc1cccc(Nc2ncc3ncc(=O)n(CCc4ccccc4)c3n2)c1 | 9.7%
COc1ccc(CNC(=O)CSc2nnc(C)c3c(C)n(-c4ccccc4)nc23)c(OC)c1 | -1.9%
Cc1csc(NC(=O)Cc2nn(C)c(=O)c3ccccc23)n1 | 4.5%
CN(CC(=O)Nc1cccc(F)c1)C(=O)CCNC(=O)c1ccc(Br)cc1 | -1.8%
Cc1cccc(N(C(=O)CS(=O)CC(=O)Nc2ccc3c(c2)OCO3)C(C)C(=O)NC2CCCC2)c1C (stereo not drawn) | -4.0%
CC(C)CCN1CCN(Cc2ccc(Sc3nncn3C)o2)CC1CCO (stereo not drawn) | -3.2%
Cc1nn(C)cc1C(C)NC(=O)c1cc(COc2ccc(F)c(F)c2)on1 (stereo not drawn) | -4.7%
COc1ccc(C2=CCN3CCCCC3C2)c(-c2ccc(OC)c(OC)c2)c1 (stereo not drawn) | -15.6%
OCCC#Cc1ccc(CN2CCN(C3CCCCC3)C(CCO)C2)cc1 (stereo not drawn) | -11.5%
CN(c1ccccc1)S(=O)(=O)c1cccc(NC(=O)c2ccncc2)c1 | 3.1%
CCOC(=O)C1CCCN(C(=O)CCNS(=O)(=O)c2ccc3c(c2)CCC(=O)N3)C1 (stereo not drawn) | ?
CCOc1ccc(NC(=O)CN2C(=O)COc3ccccc32)cc1 | 2.1%
COc1ccc(N2C(=O)/C(=C\c3ccco3)N=C2SCC(N)=O)cc1Cl | -0.1%
COc1ccccc1N1CCN(C(=S)NC(=O)/C=C/c2ccccc2)CC1 | 1.7%

Shown with each value named: entries from further up.
CCOC(=O)C1CCCN(C(=O)CCNS(=O)(=O)c2ccc3c(c2)CCC(=O)N3)C1 (stereo not drawn)
- VDR inhibitor = ?
CN(c1ccccc1)S(=O)(=O)c1cccc(NC(=O)c2ccncc2)c1
- VDR inhibitor = 3.1%
COc1ccccc1N1CCN(C(=S)NC(=O)/C=C/c2ccccc2)CC1
- VDR inhibitor = 1.7%

Next structures follow:
SMILES | VDR inhibitor
CC1=Nc2ccccc2/C1=C\c1nc(-c2ccccc2)oc1O | 9.6%
COC(=O)C1OC(=O)C2OC23[C@]2(C)C(O)CC4C(C)(C)C(OC(C)=O)CC(OC(C)=O)[C@@]4(C)C2CC[C@@]13C (stereo partly drawn) | -0.3%&5.0%
COCCN(C(=O)c1csnn1)C(C(=O)NC1CCCCC1)c1sccc1C (stereo not drawn) | -5.0%
COc1cc(C(=O)Nc2ccc(N3CCN(C(=O)c4ccc(C)cc4)CC3)cc2)cc(OC)c1OC | -4.0%
COc1ccc(C(=O)NC2CCCc3ccccc32)cc1S(=O)(=O)N1CCOCC1 (stereo not drawn) | -1.4%
Cc1ccc2oc3c(c(=O)c2c1)C(c1ccc(O)cc1)N(c1nc(C)c(C)s1)C3=O (stereo not drawn) | 5.7%
COc1ccc(CCNc2nc3ccccc3n3cnnc23)cc1OC | -1.8%
CSc1ncccc1C(=O)OCC(=O)NC(N)=O | 3.6%
C[C@H](CO)N1C[C@H](C)[C@@H](CN(C)S(=O)(=O)c2ccccc2)Oc2ccc(NC(=O)c3ccncc3)cc2C1=O | 19.2%
NC(=O)CSc1nc(N)c2c3c(sc2n1)CCCCC3 | 1.6%

Six compounds already listed, arranged by the value under VDR inhibitor, high to low.
SMILES | VDR inhibitor
CSc1ncccc1C(=O)OCC(=O)NC(N)=O | 3.6%
NC(=O)CSc1nc(N)c2c3c(sc2n1)CCCCC3 | 1.6%
COc1ccc(C(=O)NC2CCCc3ccccc32)cc1S(=O)(=O)N1CCOCC1 (stereo not drawn) | -1.4%
COc1ccc(CCNc2nc3ccccc3n3cnnc23)cc1OC | -1.8%
COc1cc(C(=O)Nc2ccc(N3CCN(C(=O)c4ccc(C)cc4)CC3)cc2)cc(OC)c1OC | -4.0%
COCCN(C(=O)c1csnn1)C(C(=O)NC1CCCCC1)c1sccc1C (stereo not drawn) | -5.0%

(cont.)
SMILES | VDR inhibitor
COc1cc(C(=O)NCC(c2ccc(N(C)C)cc2)N2CCCC2)cc(OC)c1OC (stereo not drawn) | -4.9%
COc1cccc(OC)c1CNC(=O)CCSCc1ccccc1F | 8.9%
COc1ccc(-c2nc3cnc(N4CCNCC4)nc3n(C)c2=O)cc1 | -8.2%
O=S(=O)(Cc1ccccc1)N1CCN(Cc2ccc3c(c2)OCO3)CC1 | -2.6%
CCNc1nc(Cl)nc(NCc2ccccc2)n1 | -0.2%
Clc1ccc(-c2csc(N3CCOCC3)n2)cc1 | 7.4%
COc1ccc(C(c2nnnn2Cc2ccccc2)N2CCN(C(=O)c3ccco3)CC2)cc1OC (stereo not drawn) | -6.4%
COc1ccc2c(c1)C(C)CC(C)(C)N2C(=O)Nc1ccccc1 (stereo not drawn) | -5.1%
COc1cc(C)ccc1OCC(=O)OCC(=O)NCC1CCCCC1 | 21.1%
COc1ccc(N2CCN(C(=O)c3ccc(Cl)c(S(=O)(=O)N4CCOCC4)c3)CC2)cc1 | -15.1%
CCOc1ccc(OCCN2C(=O)NC(Cc3c[nH]c4ccccc34)C2=O)cc1 (stereo not drawn) | 0.4%
COc1ccc(NC(=O)c2cc3cc(OC)ccc3oc2=O)cc1 | -16.3%
CCCCN(C)CCCNC(=O)c1cc(=O)[nH]c2ccc(S(=O)(=O)N3CCCCC3C)cc12 (stereo not drawn) | -6.2%
COc1cccc(-c2nc(CS(=O)(=O)CC(=O)Nc3cc(OC)ccc3OC)c(C)o2)c1 | 12.7%
C=CCn1c(SCC(=O)N(CC)c2c(N)n(Cc3ccccc3)c(=O)[nH]c2=O)nnc1-c1ccccc1OC | -23.6%
CN(C(=O)c1ccc(F)cc1)c1ccc(OCC(=O)Nc2ccccc2C(=O)O)cc1 | -14.7%
N#Cc1c(-c2ccccc2)ccn(Cc2ccc(Cl)cc2)c1=O | 5.4%
CC1Cc2ccccc2N1C(=O)C1CCN(S(=O)(=O)c2cccs2)CC1 (stereo not drawn) | -0.7%
CC1CN(S(=O)(=O)c2cc(C(=O)N3CCCCC3C)ccc2Cl)CC(C)O1 (stereo not drawn) | -91.8%
CCn1nc(C)c(NC(=O)CCCSc2nc(-c3ccco3)cc(C(F)(F)F)n2)c1C | 0.8%
CCN(CC(=O)NCc1cccs1)c1ccc(S(=O)(=O)N2CCCC2)cn1 | -20.8%
CC(C)NC(=O)N1CC[C@@]2(CCCN(S(=O)(=O)c3ccccc3)C2)C1 | -10.4%
O=c1cc(CN2CCOCC2)c2c(ccc3ccccc32)o1 | -12.9%
COc1ccc(CC(=O)n2[nH]c(=O)c3ccccc3c2=O)cc1OC | 4.7%
NC(=O)C1(Nc2ccc([N+](=O)[O-])cc2)CCCC1 | -3.9%
COc1ccc(N2C3=C(CC4=C2CCCC4=O)C(=O)CCC3)cc1 | -22.2%
Cc1ccc(-c2noc(-c3c(C)noc3C)n2)cc1 | -0.9%
Cc1ccc(C(=O)c2c3ccc([N+](=O)[O-])cc3[n+]([O-])n2CCCC(N)=O)cc1 | -2.8%
CS(=O)(=O)N(Cc1ccccc1Cl)c1ccc(C(=O)NCc2ccccn2)cc1 | -16.1%
O=C(/C=C/c1cccnc1)c1ccc(O)cc1 | -11.1%
CCN(C(=O)CSc1nc2ccccc2nc1Cc1cccc(OC)c1)c1cccc(C)c1 | 14.5%
COc1cc(C(=O)N2CCN(CCc3ccncc3)CC2)cc(OC)c1OC | 3.4%
CC(C)(C)c1ccc(Cn2nnc3c(=O)[nH]c(C4CCCN(C(=O)c5cccs5)C4)nc32)cc1 (stereo not drawn) | 11.2%
Cc1cccc(N2CCN(C(=O)Cn3ncc4c3-c3ccccc3OC4)CC2)c1C | 5.9%
COc1ccc(C(=S)N2CCCCC2)cc1Br | 9.8%
Cc1cnc(CNc2cc(-c3ccc(C(=O)N(C)C)cc3)ncn2)cn1 | ?
O=C1C(Cl)=C(NCC2CCCO2)C(=O)N1C1CCCCC1 (stereo not drawn) | -15.4%

The list is partial, so the mix of outcomes need not match the whole.
